Screens deposited in PubChem BioAssay by SRMLSC.
H5N1 CPE – MDCK cell protection from H5N1 avian flu; cytopathic effect, luminescence, 72 h; stronger effect = higher value; no value below 0 was filed and about half of the inactive calls have no number; reference of the scale not given here; inhibition, % at 50 µM; 0.07% of 96,000 active; in the data active = inhibition above about 25%
* marks the source's active call; other numbers are inactive results; & = joins results of further samples. Some of the compounds tested; rates above refer to the full screens.

Cc1ccc(C(c2sc3nc(C)nn3c2O)N2CCN(c3ccc(F)cc3)CC2)cc1 (stereo unspecified) was read as H5N1 CPE 0.3.
O=C(O)C1Cc2ccccc2CN1C(=O)c1ccccc1 (stereo unspecified) was read as H5N1 CPE 0.6.
`CCCC(C)NC(=O)c1nc(-c2ccccc2)n(-c2ccccc2)n1` (stereo unspecified) gave H5N1 CPE inactive.
CCOC(=O)c1ccc(NC(=O)CCc2nc(-c3ccccc3)no2)cc1 was read as H5N1 CPE inactive.
For CC(=O)c1ccc(NC(=O)CSC(C)C)cc1 the results were H5N1 CPE inactive.
For CCCCn1nnnc1SCC(=O)Nc1ccc(C)cc1 the results were H5N1 CPE inactive.
Screening CC(=O)OC(/C(O)=C(\C#N)c1nc2ccccc2[nH]1)c1ccccc1 (stereo unspecified) returned H5N1 CPE inactive.
Screening O=C(O)CC(NCc1ccco1)C(=O)OCCc1ccccc1 (stereo unspecified) returned H5N1 CPE inactive.
Nc1c(C(=O)c2ccccc2)oc2ccc(Br)cc12 was read as H5N1 CPE inactive.
Screening COC(=O)c1ccccc1NC(=O)Cn1cnc2ccc(S(=O)(=O)N3CCC(C)CC3)cc2c1=O returned H5N1 CPE 1.2.
`CC(=O)Nc1ccc(S(=O)(=O)/N=C2\SCCN2S(=O)(=O)c2ccc(NC(C)=O)cc2)cc1` gave H5N1 CPE 4.2.
Screening Cc1ccc(S(=O)(=O)N(CC(=O)N/N=C/c2cccc(C)c2)c2cccc3cccnc23)cc1 returned H5N1 CPE 0.6.
For CC(CS(=O)(=O)c1cccc2cccnc12)N1CCCCC1 (stereo unspecified) the results were H5N1 CPE 1.1.
For Cc1cc(C)nc(SC(C)C(=O)O)n1 (stereo unspecified) the results were H5N1 CPE 1.3.
Screening CC(C)OC(=O)CN1CCN(C2c3ccccc3-c3ccccc32)CC1 returned H5N1 CPE inactive.
Screening CC1CCCN(c2nc3ccccc3nc2C(C#N)S(=O)(=O)c2ccccc2)C1 (stereo unspecified) returned H5N1 CPE inactive.
Screening Cc1onc(-c2ccccc2)c1C(=O)Nc1nc(-c2cc(F)ccc2F)cs1 returned H5N1 CPE inactive.
For CC1=NC(C)(C)Cc2ccccc21 the results were H5N1 CPE inactive.
`O=S(=O)(c1cccc2cccnc12)N1CCN(c2ccccc2)CC1` gave H5N1 CPE 3.0.
For O=C1C(c2ccc(F)cc2)N(Cc2ccc3c(c2)OCO3)C(=O)CN1C1CCCCCC1 (stereo unspecified) the results were H5N1 CPE 0.6.

As a working copy, some entries already given.
`CCCC(C)NC(=O)c1nc(-c2ccccc2)n(-c2ccccc2)n1` (stereo unspecified) gave H5N1 CPE inactive.
CCOC(=O)c1ccc(NC(=O)CCc2nc(-c3ccccc3)no2)cc1 was read as H5N1 CPE inactive.
For CC(=O)c1ccc(NC(=O)CSC(C)C)cc1 the results were H5N1 CPE inactive.
For CCCCn1nnnc1SCC(=O)Nc1ccc(C)cc1 the results were H5N1 CPE inactive.
Screening CC(=O)OC(/C(O)=C(\C#N)c1nc2ccccc2[nH]1)c1ccccc1 (stereo unspecified) returned H5N1 CPE inactive.

The main list resumes with the 2 entries that preceded the break.
`O=S(=O)(c1cccc2cccnc12)N1CCN(c2ccccc2)CC1` gave H5N1 CPE 3.0.
For O=C1C(c2ccc(F)cc2)N(Cc2ccc3c(c2)OCO3)C(=O)CN1C1CCCCCC1 (stereo unspecified) the results were H5N1 CPE 0.6.
For COc1cc(C(c2c(C)[nH][nH]c2=O)c2c(C)[nH][nH]c2=O)ccc1OC(=O)c1cccc([N+](=O)[O-])c1 the results were H5N1 CPE inactive.
Cn1cccc1Cc1nnc(SCC(=O)N2CCCc3ccccc32)n1-c1ccc(F)cc1 was read as H5N1 CPE inactive.
`CC(C)CN(CC(C)C)S(=O)(=O)N1CCC(C(=O)NCc2cccs2)CC1` gave H5N1 CPE inactive.
COC(=O)CCC(=O)NC(=S)Nc1cc(Cl)ccc1Cl was read as H5N1 CPE 0.3.
Screening COC(=O)c1ccc(Cl)c(NC(=O)NC2CCCCC2)c1 returned H5N1 CPE 0.3.
Screening O=C(Nc1ccc(-c2noc(CCc3ccccc3)n2)cc1)c1ccco1 returned H5N1 CPE inactive.
Cn1nc(-c2ccc(OCC(=O)N3CCN(Cc4ccccc4)CC3)cc2)c2ccccc2c1=O was read as H5N1 CPE 1.5&0.1.
Screening Cc1onc(-c2ccccc2Cl)c1C(=O)Nc1ccc(-n2nncc2C(C)(C)C)cc1 returned H5N1 CPE 0.6.
Screening O=C(O)CCC(=O)N1CCc2cc(S(=O)(=O)N3CCN(c4ccc(F)cc4)CC3)ccc21 returned H5N1 CPE 1.3.
`COc1ccc(C)cc1NC(=O)CSc1nnc(-c2ccco2)n1N` gave H5N1 CPE 1.1.
For C/C=C(\C)c1nnc(NC(=O)C(C)C)s1 the results were H5N1 CPE 0.2.
Screening COc1ccc(NS(=O)(=O)c2cc(C)ccc2NC(=O)c2cc(C)oc2C)cc1 returned H5N1 CPE inactive.
CN(CCO)c1ccc([N+](=O)[O-])cc1C(=O)O was read as H5N1 CPE inactive.
Screening CCOn1c(SCC)nc2ccccc2c1=O returned H5N1 CPE 1.4.
`Cc1ccc(N(CC(=O)Nc2ccc(F)cc2)S(=O)(=O)N2CCCC2)cc1` gave H5N1 CPE inactive.
`COc1cc(C2c3c(-c4cc(Cl)c(C)cc4O)n[nH]c3C(=O)N2Cc2cccnc2)ccc1O` (stereo unspecified) gave H5N1 CPE 1.5.
Screening O=C(COc1ccc2c3c(c(=O)oc2c1)CCC3)c1ccc2c(c1)OCO2 returned H5N1 CPE inactive.
`CCOC(=O)C1CCN(C(=O)c2ccccc2N(C)S(C)(=O)=O)CC1` gave H5N1 CPE inactive.
For O=S(=O)(NCc1ccccc1)c1ccc(S(=O)(=O)N2CCCCC2)cc1 the results were H5N1 CPE 0.5.
Screening C#CCOC(=O)c1ccccc1C(=O)OCC#C returned H5N1 CPE 1.3.
For Cn1c(=O)[nH]c(=O)c2c1nc(Br)n2CCC(=O)c1ccccc1 the results were H5N1 CPE inactive.
Screening O=C1S/C(=C\c2ccc(N3CCOCC3)o2)C(=O)N1Cc1c(F)cccc1Cl returned H5N1 CPE inactive.
CC(C)c1ccc(/C=N/NC(=O)CN(c2cccc(Cl)c2Cl)S(C)(=O)=O)cc1 was read as H5N1 CPE inactive.
Screening O=C(CSc1ncnc2c1oc1ccccc12)Nc1cccc(C(F)(F)F)c1 returned H5N1 CPE 0.6.
`Cc1ccc(NC(=O)CC2CS(=O)(=O)CC2CC(=O)Nc2ccc(C)c(C)c2)cc1C` (stereo unspecified) gave H5N1 CPE inactive.
CNC(=O)/C=C1\NC(C)(C)Cc2c1ccc1ccccc21 was read as H5N1 CPE inactive.
Screening CN(CC(=O)Nc1ccc(F)c(F)c1F)C1CCCCC1 returned H5N1 CPE 1.9.
`CCCCN(C)C(=O)c1coc(=O)c2ccccc12` gave H5N1 CPE 0.3.
Screening CC(C)Cn1c(-c2ccco2)n[nH]c1=S returned H5N1 CPE inactive.
Screening C=CCn1c(SCCCCCC)nc(O)cc1=O returned H5N1 CPE inactive.
`Cc1csc(Sc2ccc([N+](=O)[O-])cc2C(=O)OCC(=O)NC2CCCC(C)C2C)n1` (stereo unspecified) gave H5N1 CPE inactive.
Screening Cc1ccccc1NC(=O)Nc1cccs1 returned H5N1 CPE 2.0.
Screening CN(C)c1nc(SCc2ccccc2)nc(N2CCOCC2)n1 returned H5N1 CPE inactive.
For CC1=C(C)[N+](=O)C2(O)CCCCC2(C)N1[O-] (stereo unspecified) the results were H5N1 CPE 0.0.
Screening CC1(C)CC(=O)C=C(NCC(=O)O)C1 returned H5N1 CPE 0.5.
`Nc1[nH]ncc1N=Nc1ccc(Cl)cc1` gave H5N1 CPE inactive.
Screening COc1ccc(NC(=O)CSc2nc3ccccc3c(=O)n2CCNC(C)=O)cc1 returned H5N1 CPE inactive.
For NC(=O)CCc1c[nH]c2ccccc12 the results were H5N1 CPE inactive.
`Cc1ccc(-n2nnnc2SCC(=O)N2CCCCC2)cc1` gave H5N1 CPE 0.1.
O=C(CCN1CCOCC1)Nc1ccccc1 was read as H5N1 CPE inactive.
Cc1ccc(C2CC(=O)NC(SCC(=O)OCc3ccccc3)=C2C#N)o1 (stereo unspecified) was read as H5N1 CPE 0.3.
`O=c1oc2cc(O)ccc2cc1-c1ccc(F)cc1` gave H5N1 CPE 2.6.
Cc1cc(C(=O)CSc2nnc(-c3cccnc3)n2-c2ccccc2)c(C)n1CC1CCCO1 (stereo unspecified) was read as H5N1 CPE 1.0.
Screening O=C(Nc1ccc(N2CCOCC2)c(Cl)c1)c1c(F)c(F)c(F)c(F)c1F returned H5N1 CPE inactive.
For CCn1c(CC(=O)Nc2cccc(Cl)c2Cl)nnc1SCCOc1ccc(OC)cc1 the results were H5N1 CPE 0.7.
COC(=O)c1cc(NS(=O)(=O)c2ccc(OC)c(OC)c2)ccc1Cl was read as H5N1 CPE 1.7.
`Cc1ccc(-c2cc(C(F)F)n3ncc(C(=O)NCc4ccco4)c3n2)cc1` gave H5N1 CPE 2.5.
`COc1ccc(CCN2C(=O)CC(N3CCN(S(=O)(=O)c4ccccc4)CC3)C2=O)cc1` (stereo unspecified) gave H5N1 CPE 2.1.
For Cc1cc(/C=N/n2cnnc2)c(C)n1-c1ccc2c(c1)OCO2 the results were H5N1 CPE inactive.
Screening CC(C)CNC(=O)C1CC(=O)OC12CCCCC2 (stereo unspecified) returned H5N1 CPE inactive.
Screening O=S(=O)(/C=C/c1ccccc1)N1CCN(c2ccc(F)cc2)CC1 returned H5N1 CPE 0.8.
For O=S1(=O)CCN2C=C(Br)C=C(Br)C2=N1 the results were H5N1 CPE 0.3.
Screening O=C1C2ON(c3ccccc3)C(c3ccncc3)C2C(=O)N1c1ccc(Br)cc1 (stereo unspecified) returned H5N1 CPE inactive.
For COCCNC(=O)C(=O)Nc1cccc(Br)c1 the results were H5N1 CPE 0.9.
For O=C(CSc1nnnn1C1CCCCC1)N1CCc2ccccc21 the results were H5N1 CPE 0.7.
For O=C1C(C=NCc2ccco2)=C(O)c2ccccc21 the results were H5N1 CPE 2.3.
O=C(Nc1cccc(NC(=O)c2ccccc2[N+](=O)[O-])n1)c1ccccc1[N+](=O)[O-] was read as H5N1 CPE 1.9.
Clc1ccsc1-c1csc(-c2cccnc2)n1 was read as H5N1 CPE inactive.
For CCCc1cc(=O)[nH]c(SCC(=O)c2cc(C)n(CCC)c2C)n1 the results were H5N1 CPE 0.1.
`CC1CC(C)CN(c2oc(-c3ccco3)nc2C#N)C1` (stereo unspecified) gave H5N1 CPE 0.8.
Cc1cc(C)nc(N2C(=O)CC(Cc3ccccc3)C2=O)n1 (stereo unspecified) was read as H5N1 CPE 0.4.
Screening Cc1ccc(C(=O)Nc2ccc(S(=O)(=O)NCc3ccco3)cc2)cc1 returned H5N1 CPE inactive.
`C=CCNC1=C(Cl)C(=O)N(c2cccc(Cl)c2Cl)C1=O` gave H5N1 CPE 0.7.
`CCCOc1ccc(/C(O)=C2/C(=O)C(=O)N(CCCOC)C2c2ccncc2)cc1` (stereo unspecified) gave H5N1 CPE 0.8.
Screening O=C(CCN1CCCCC1)Nc1cccc(Cl)c1 returned H5N1 CPE inactive.
Screening O=[N+]([O-])c1cccc(-n2nnnc2CN2CCCCCC2)c1 returned H5N1 CPE 2.5.
For COC(=O)c1cc(C#N)c(Oc2ccc(OC)cc2)nc1C the results were H5N1 CPE inactive.
`O=[N+]([O-])c1cn(-c2nc(-c3ccco3)cc(C(F)(F)F)n2)cn1` gave H5N1 CPE 4.0.
For COc1c(C(=O)Nc2c(C)n(C)n(-c3ccccc3)c2=O)ccc2ccccc12 the results were H5N1 CPE 0.2.
For Cc1cc(C)c2nc(SCC(=O)N3CCCCC3)c(C#N)cc2c1 the results were H5N1 CPE 1.8.
`O=C(NCCN1CCOCC1)c1ccc2c(c1)N(Cc1ccccc1F)C(=O)CS2` gave H5N1 CPE 1.3.
Screening Cc1cc2nc(C3CCCN(C(=S)Nc4ccccc4)C3)[nH]c2cc1C (stereo unspecified) returned H5N1 CPE 0.4.
Screening CCOC(=O)c1ccc(NC(=O)CSc2nnc(COc3ccccc3OC)n2CC)cc1 returned H5N1 CPE inactive.
COc1ccc(C(=O)Nc2nncs2)cc1S(=O)(=O)N1CC(c2ccccc2)CC1=O (stereo unspecified) was read as H5N1 CPE 1.4.
`COc1ccc(-n2c(SCC(=O)Nc3nccs3)nnc2-c2ccoc2C)cc1` gave H5N1 CPE inactive.
CC(=O)Nc1c(C(=O)O)[nH]c2ccccc12 was read as H5N1 CPE inactive.
`Oc1c(C(Nc2nc3ccccc3s2)c2ccco2)ccc2cccnc12` (stereo unspecified) gave H5N1 CPE inactive.
COc1ccc2c(c1OC)C(=O)N(c1cccc(C)c1)C2=O was read as H5N1 CPE 0.3.
For CC(=O)Oc1cccc(N2C(=O)C3C(C2=O)C2C=CC3C23CC3)c1 (stereo unspecified) the results were H5N1 CPE inactive.
For COC(=O)C1CCN(C(=O)NC(C)(C)C)CC1 the results were H5N1 CPE inactive.
Screening N#CC(C(=O)NCCc1ccccc1)c1nc2ccccc2nc1N1CCCCC1 (stereo unspecified) returned H5N1 CPE inactive.
O=C(NCC1c2ccccc2CCN1C(=O)CN1CCOCC1)C1CCCCC1 (stereo unspecified) was read as H5N1 CPE inactive.
For CN(C)CCNC(=O)Nc1ccc(Cl)c(Cl)c1 the results were H5N1 CPE inactive.
For COc1cccc2c1OC1(C)CC2NC(=O)N1Cc1ccccc1 (stereo unspecified) the results were H5N1 CPE 0.4.

Among those listed so far, 7 have two or more sulfur atoms:
`CC(=O)Nc1ccc(S(=O)(=O)/N=C2\SCCN2S(=O)(=O)c2ccc(NC(C)=O)cc2)cc1` gave H5N1 CPE 4.2.
`CC(C)CN(CC(C)C)S(=O)(=O)N1CCC(C(=O)NCc2cccs2)CC1` gave H5N1 CPE inactive.
For O=S(=O)(NCc1ccccc1)c1ccc(S(=O)(=O)N2CCCCC2)cc1 the results were H5N1 CPE 0.5.
`Cc1csc(Sc2ccc([N+](=O)[O-])cc2C(=O)OCC(=O)NC2CCCC(C)C2C)n1` (stereo unspecified) gave H5N1 CPE inactive.
Clc1ccsc1-c1csc(-c2cccnc2)n1 was read as H5N1 CPE inactive.
COc1ccc(C(=O)Nc2nncs2)cc1S(=O)(=O)N1CC(c2ccccc2)CC1=O (stereo unspecified) was read as H5N1 CPE 1.4.
`COc1ccc(-n2c(SCC(=O)Nc3nccs3)nnc2-c2ccoc2C)cc1` gave H5N1 CPE inactive.
